# Source: PubChem
# VDR inh = blocks the human vitamin D receptor; VDR-SRC2-3 peptide fluorescence polarization, 2 h; Potency, µM, inactives show max response, negative = inhibition, usual class: inhibitors; actives 0.93% (n = 400,000); active means well fitted inhibition curve with a large enough effect; inconclusive means small, poorly fitted or top-dose-only effect, or another doubt; inactive means no such curve, though single readings can be large or run the other way; further: series mostly up to about 120 µM
# Target sequence (P11473 whole entry, looked up): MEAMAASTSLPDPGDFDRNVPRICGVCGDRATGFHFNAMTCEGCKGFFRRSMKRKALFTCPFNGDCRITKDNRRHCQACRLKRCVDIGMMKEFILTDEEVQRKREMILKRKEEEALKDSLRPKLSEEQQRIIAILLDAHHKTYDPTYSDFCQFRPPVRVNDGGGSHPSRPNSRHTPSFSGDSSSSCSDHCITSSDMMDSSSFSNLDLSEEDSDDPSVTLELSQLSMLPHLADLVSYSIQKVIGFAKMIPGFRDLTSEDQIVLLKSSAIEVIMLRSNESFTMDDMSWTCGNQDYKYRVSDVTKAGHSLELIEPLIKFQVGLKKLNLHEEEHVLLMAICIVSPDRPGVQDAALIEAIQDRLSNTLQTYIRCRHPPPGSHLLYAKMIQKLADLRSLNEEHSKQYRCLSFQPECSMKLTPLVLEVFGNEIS
#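 FP read-out; VDR + SRC2-3 coactivator peptide; 23 nl compound by pintool; 2 h RT incubation; reagents held at 4 deg C, protected from light.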
# * = called active by the depositor; ? = inconclusive. On the % scale 0 is the no-effect control and ±100 the full control effect; potency means the concentration at half of the fitted maximal effect.
SMILES,VDR inh
O=C(CC(Cc1ccccc1)C(=O)O)NCCc1ccc2c(c1)OCO2 (configuration not stated),-9.7%
Cc1ccc(C(=O)Nc2ccc(C(=O)N3CCCCC3)cc2)cc1,-15.6%
CNc1nc(-c2ccc3c(c2)OCO3)nc2ccccc12,0.6%
O=c1[nH]c(=S)[nH]cc1Oc1ccc(Cl)cc1Cl,-24.3%
O=C(Nc1ccc([N+](=O)[O-])cc1)Nc1nc(-c2ccc(Cl)s2)cs1,-6.7%
COc1ccc(NC(=O)CSc2ccc3nnc(-c4cccnc4)n3n2)cc1,-15.5%
C=CCOC(=O)[C@H](O)[C@@H](O)C(=O)OCC=C,-0.4%
CCc1noc(C)c1C(=O)N1CC(C)SC1=Nc1ccc(Cl)cc1 (configuration not stated),-8.0%
Cc1cccc(NC(=O)COC(=O)CCc2ccc(S(=O)(=O)N3CCOCC3)cc2)c1C,11.3%
COC(=O)C(C)Sc1ccc2nnc(CCNS(=O)(=O)c3ccccc3)n2n1 (configuration not stated),-15.2%
CCN(CC)c1ccc2cc(-c3nnc(Nc4ccc(C)cc4)s3)c(=O)oc2c1,2.3%
O=C1c2ccccc2NC(c2cc(Cl)cc(Cl)c2O)N1Cc1cccnc1 (configuration not stated),0.1%
COCCNC(=O)C(c1ccc(C)o1)N(CCOC)C(=O)Cn1nnc2ccccc21 (configuration not stated),-25.2%
O=C(Nc1cccc(Br)c1)c1cc(=O)c2ccccc2o1,-7.5%
CC(/C=N/NC(=O)COc1ccccc1C)=N\NC(=O)COc1ccccc1C,-0.3%
O=[N+]([O-])c1ccc(S(=O)(=O)N2CCN(Cc3ccco3)CC2)cc1,5.9%
COc1ccc2c(c1)CC(C(=O)N1CCC(C(N)=O)CC1)CO2 (configuration not stated),5.0%
CN(C)C(CNC(=O)c1cccc(S(=O)(=O)Nc2ccccc2Cl)c1)c1ccco1 (configuration not stated),-4.2%
Cc1cc(C)nc(/N=C(\N)Nc2ccc3c(c2)OCCO3)n1,3.4%
CCOC(=O)Cn1nnnc1CN1CCN(c2ccc(OC)cc2)CC1,20.2%
CN(CC(=O)O)S(=O)(=O)c1ccc2[nH]c(=O)c(=O)[nH]c2c1,1.9%
COc1ccc(CCNC(=O)COC(=O)c2cc(=O)c3ccccc3o2)cc1,1.5%
CC(=O)Nc1ccc(NC(=O)COC(=O)c2n[nH]c3ccccc23)cc1,7.7%
CCN(CC)Cc1c(O)c(Cl)cc2c(C)c(C)c(=O)oc12,9.0%
CCCc1cc(-c2n[nH]c(=S)n2Cc2ccccc2)cs1,-8.0%
CCCCc1ccc(NC(=O)c2c(C)noc2C)cc1,-4.9%
O=C1CCCc2c1[nH]c1ccc(CN3CCCCC3)cc21,-10.6%
O=C(CC1N=C2c3ccccc3N=C(SCc3ccc(F)cc3)N2C1=O)NCCc1ccccc1 (configuration not stated),-6.1%
CCCC(C(=O)NCc1ccccc1)N(C(=O)Cn1nnc(-c2cccs2)n1)c1ccc2c(c1)OCCO2 (configuration not stated),4.9%
O=C(CCOc1ccc(F)cc1)Nc1nccs1,-7.4%
COc1ccc(C(=O)CSc2ccc3nnc(-c4cccnc4)n3n2)cc1,12.3%
C1CCN(Cc2nnnn2CC2CCCO2)CC1 (configuration not stated),4.7%
COc1cc2c(cc1NC(=S)Nc1ccccc1C)oc1ccccc12,-11.2%
C=CCn1c(SCC(N)=O)nnc1-c1cc2c(s1)CCC(CC)C2 (configuration not stated),1.2%
COc1ccc(Cc2nnc(SCC(=O)N3CCCCC3)o2)cc1,-13.6%
CCOc1ccccc1NC(=O)C1CCCN(S(=O)(=O)c2ccc(-n3cnnn3)cc2)C1 (configuration not stated),-1.5%
Cc1ccc(Cl)cc1NC(=S)N1CCC(c2ccccc2)C1 (configuration not stated),0.0%
OCc1nc2ccccc2n1CCOc1ccccc1,-6.1%
Cc1ccc(S(=O)(=O)N2CCCCC2)cc1NC(=O)CSc1nnc(C2CC2)n1C,?
Nc1nc(COC(=O)C2CCN(C(=O)c3ccc(Cl)cc3)CC2)nc(Nc2ccccc2)n1,-1.0%
O=C(c1ccc(Cl)c(F)c1F)N1CCCC1,-0.6%
CCCC12CN3CC(CCC)(CN(C1)C3c1ccc(OCc3ccccc3)cc1)C2=O (configuration not stated),0.1%
CC1(C)CC(=O)C([C@H]2C3=C(CC(C)(C)CC3=O)Oc3ccccc32)C(=O)C1,6.7%
Nc1nc(NCc2ccco2)nc(N2CCCCCC2)c1[N+](=O)[O-],-9.2%
CCOC(=O)C1CCCN(C(=O)c2cc(-c3ccc(C)cc3)nc3ccccc23)C1 (configuration not stated),1.0%
Cc1ccc(S(=O)(=O)Cn2nnnc2C(CC(C)C)N2CCN(c3ccc(F)cc3)CC2)cc1 (configuration not stated),-5.5%
Cc1c(-c2ccccc2)oc2c(C(=O)OCC(=O)Nc3cccc(F)c3)cccc2c1=O,6.8%
CCn1cc(C(=O)NCCCOC)c(=O)c2cc(S(=O)(=O)N3CCC(C)CC3)ccc21,-6.3%
COC(=O)COc1ccc(S(=O)(=O)N2CCOCC2)cc1C,-0.3%
COc1ccccc1CNC(=O)c1cc2sccc2n1C,1.8%

# Carrying on:
SMILES,VDR inh
CC(C)CCn1c(NCCN(C)C)nc2c1c(=O)[nH]c(=O)n2C,1.2%
C=CCOc1ccc(/C=C2\C(=N)N3N=C(S(=O)(=O)CC)SC3=NC2=O)cc1OC,-11.3%
CCCNC(=S)N1CCN(C(c2ccccc2)c2ccccc2)CC1,-6.9%
CN1CCC(=NNC(=O)C(=O)NC2CCCCC2)CC1,-2.1%
COc1ccc2nc(NC(=O)c3c(C)noc3C)sc2c1,21.5%
CCn1c2ccccc2c2cc(NS(=O)(=O)c3ccccc3C)ccc21,-2.6%
CCOc1cc(/C=C2\C(=O)NN(c3ccccc3)C2=O)cc([N+](=O)[O-])c1O,?
CC(=O)c1cccc(NC(=O)c2nccnc2C(=O)O)c1,-20.3%
CCc1nnc(NC(=O)CSc2ccc(-c3ccc(-n4cccn4)cc3)nn2)s1,6.1%
CC1=C(C(=O)OCc2ccccc2)C(c2ccc(Cl)cc2)NC(=O)N1CCCCCC(=O)O (configuration not stated),-11.8%
CC(=O)Nc1c(C)nn(-c2ccccc2)c1N1CCC(C(=O)NCc2cccc(F)c2)CC1,8.2%
CCCNc1nc2c(c(=O)n(C)c(=O)n2C)n1CCc1ccccc1,-9.7%
O=C(CCNS(=O)(=O)c1cccc2nsnc12)NCCC1=CCCCC1,-5.6%
CC(=NCCc1c(C)[nH]c2ccc(OC(F)(F)F)cc12)C1=C(O)CC(c2ccccc2)CC1=O (configuration not stated),-9.4%
CCCc1c(C(=O)N/N=C/c2sccc2C)nnn1-c1nonc1N,1.4%
COc1ccc(C(=O)c2ccc(Cl)cc2Cl)cc1,-11.1%
CCc1ccc(S(=O)(=O)Nc2ccc3[nH]c(=O)sc3c2)cc1,14.5%
CCOc1cccc(-c2nnc(SCC(=O)Nc3cc(C)ccc3OC)n2N)c1,-4.5%
Cc1c(Cl)cccc1NC(=S)N(CCCN1CCOCC1)Cc1ccco1,-5.6%
COc1ccc(NC(=O)c2c(NCc3cccc(F)c3)sc3c2CCC3)c(OC)c1,-5.7%

# Given with values ahead of the structure: entries from further up.
VDR inh,smiles
8.2%,CC(=O)Nc1c(C)nn(-c2ccccc2)c1N1CCC(C(=O)NCc2cccc(F)c2)CC1
-9.7%,CCCNc1nc2c(c(=O)n(C)c(=O)n2C)n1CCc1ccccc1

# Continued:
SMILES,VDR inh
O=C(N[C@H]1CCC(=O)N([C@H](CSc2ccc(Br)cc2)Cc2ccccc2)CC1)OCc1ccccc1,-14.0%
CCCN(Cc1cccs1)C(=O)Nc1cc(Cl)c(OC)cc1OC,-4.3%
O=C1C(O)CCN1Cc1ccccc1 (configuration not stated),1.0%
Cc1nn(-c2cc(N3CCNCC3)ccc2[N+](=O)[O-])c(=O)c2ccccc12,5.1%
Cc1nc(/N=C(\N)NC(=O)c2ccccc2)nc2ccccc12,-11.9%
CCN(C(=O)C(NS(=O)(=O)c1cccc2nsnc12)c1ccccc1)c1ccccc1 (configuration not stated),-5.1%
O=C(O)CCSc1nc2ccc(Br)cc2[nH]1,6.2%
O=C(OCCOCCO)c1ccccc1Nc1cccc(C(F)(F)F)c1,-28.5%
C[C@H](O)[C@H](O)[C@H]1CNc2nc(N)[nH]c(=O)c2N1,79.4µM*
CCN(c1ccccc1)S(=O)(=O)c1ccc(OC)c(OC)c1,-13.0%
CN1CCN(C(=S)NC(=O)c2cccc([N+](=O)[O-])c2)CC1,10.2%
O=C1C2CC=CCC2C(=O)N1c1ccc(OCC(O)Cn2nnc3ccccc32)cc1 (configuration not stated),-11.6%
CCc1ccc(C(=O)N/N=C/c2cccc3ccccc23)nc1,-20.0%
CCN(CC(=O)NCc1ccc(F)cc1)C(=O)CN1CCN(c2ccc(OC)cc2)CC1,-11.4%
COc1ccc(-n2c(SCC(=O)N3CCOCC3)nnc2C(C)N2CCCCC2)cc1 (configuration not stated),10.7%
COC(=O)[C@@H](NC(=O)c1cc(COc2cncc(Cl)c2)on1)c1ccccc1,8.7%
Cc1nc(C(F)(F)F)c(C(=O)NC(=O)Nc2ccccc2)s1,5.9%
Cc1ccc(/C=N/NC(=O)CSc2nc3ccccc3n2Cc2ccccc2)o1,-16.4%
COc1ccccc1CCNC(=O)CCCn1nc(C)c2c(C)n(-c3ccc(C)cc3)nc2c1=O,-7.2%
CCc1nnc(NC(=O)CN2CCN(c3nc(-c4ccccc4)cs3)CC2)s1,-4.9%

# 2 entries drawn at random from those above:
SMILES,VDR inh
COc1ccc(-n2c(SCC(=O)N3CCOCC3)nnc2C(C)N2CCCCC2)cc1 (configuration not stated),10.7%
COc1ccccc1CCNC(=O)CCCn1nc(C)c2c(C)n(-c3ccc(C)cc3)nc2c1=O,-7.2%

# (further entries)
SMILES,VDR inh
O=C(Nc1ccc(N2CCOCC2)c(S(=O)(=O)Nc2ccc(Cl)cc2)c1)c1cnccn1,79.4µM*
CC/C(=N\NC(=O)OC)c1ccc(OC(F)F)cc1,-11.5%
COCC(=O)Nc1ncc(S(=O)(=O)c2ccc([N+](=O)[O-])cc2)s1,-16.1%
O=C(COC(=O)CCC(=O)c1cccs1)NC1CCCCC1,-2.3%
CC(=O)Nc1ccc2nc(C)n(Cc3ccc(Cl)cc3)c(=O)c2c1,-13.1%
O=C(NCc1ccco1)c1ccc2c(c1)C(=O)N(Cc1ccccc1)C2=O,1.8%
CC(O)c1ccc(OCCN(C)c2ccccn2)cc1 (configuration not stated),-1.1%
O=C(O)CN1C(=O)NC2NC(=O)NC21 (configuration not stated),-13.2%
O=C(NC1=NCCS1)c1ccc([N+](=O)[O-])cc1Cl,4.2%
Cc1cc(NC(=O)CCc2nc3cccnc3n2Cc2cccs2)ccc1Br,-19.8%
Cc1ccc(N(CC(=O)N/N=C/c2cc(C)n(-c3ccccc3C)c2C)S(C)(=O)=O)cc1,-16.3%
O=C(NCc1ccc(F)cc1)c1cc2c(s1)CS(=O)(=O)C2,-14.7%
O=C(Nn1c(-c2ccc(Cl)cc2)nc2ccccc2c1=O)c1cccnc1Cl,16.2%
Cc1nc(C)c(-c2nnc(-c3ccc(C(C)(C)C)cc3)o2)cc1C(=O)NN,2.3%
Cc1cc(C)cc(OCC(=O)OC(C)C(=O)Nc2c(C)n(C)n(-c3ccccc3)c2=O)c1 (configuration not stated),-10.6%
Cc1ccc(-n2cc(CN(C)CCc3cn[nH]c3)c(-c3cccc(C)c3)n2)cc1,-19.8%
CN(C(=S)NC(=O)c1ccc(Cl)cc1)C1CCCCC1,-28.5%
CC1CCN(C(=O)c2ccc(-c3ccccc3Cl)o2)CC1,-23.1%
O=C(Cc1csc(Nc2nc(=S)[nH]c3ccccc23)n1)NCCCN1CCN(c2cccc(Cl)c2)CC1,-6.1%
CN(C(=O)COC(=O)C1CCN(S(=O)(=O)c2cccs2)CC1)C1CCS(=O)(=O)C1 (configuration not stated),-0.2%
Cc1noc(C)c1Cc1c(Cl)cccc1Cl,-2.5%
CN(C)c1ccc(/C=C2\SC(=S)N(Nc3ncc(C(F)(F)F)cc3Cl)C2=O)cc1,-12.8%
Cc1cc2nc(SCC(=O)Nc3ccccc3C(=O)O)[nH]c2cc1C,-2.8%
O=C(Nc1ccc2c(c1)OCCO2)c1ccc(Cl)cc1,-3.3%
COc1ccc2nc(SCC(=O)Nc3ccc4c(c3)CCC4)[nH]c2c1,-15.0%
Cc1cccc(NC(=S)NCc2ccc3c(c2)OCO3)c1,2.6%
CCO[C@H]1OC(C(N)=O)=C[C@@H](C(C)(C)C)[C@@H]1CCCO,-2.3%
O=C(Nc1ccc(N2CCOCC2)cc1)C1=NN(c2ccccc2)C(=O)CC1,11.9%
COc1ccc(NC(=O)c2cc(F)cc(F)c2)cc1Cl,-2.5%
C=CCNC(=S)Nc1ccc(F)cc1F,-23.1%

# A second format for some results above:
> O=C(Nc1ccc2c(c1)OCCO2)c1ccc(Cl)cc1
  VDR inh: -3.3%
> COc1ccc2nc(SCC(=O)Nc3ccc4c(c3)CCC4)[nH]c2c1
  VDR inh: -15.0%
> C=CCNC(=S)Nc1ccc(F)cc1F
  VDR inh: -23.1%
> Cc1noc(C)c1Cc1c(Cl)cccc1Cl
  VDR inh: -2.5%

# Other results follow.
SMILES,VDR inh
COc1ccccc1N1CCN(C(=O)C(=O)N/N=C/c2ccccc2F)CC1,-11.2%
O=C(COc1cccc(Cl)c1)NCc1ccccc1,3.0%
OC1(c2cccc(F)c2)CCN(Cc2ccncc2)CC1,-5.7%
CC(C)Cn1c(-c2ccc(C#N)cc2)nc2c1c(=O)[nH]c(=O)n2CC(C)C,7.7%
CCS(=O)(=O)N1CCN(C(=O)c2cccc3ccccc23)CC1,-2.4%
CCC1CCCCN1C(=O)CSc1nc2c(c(=O)n(C)c(=O)n2C)n1C (configuration not stated),-4.4%
CCOC(=O)c1cc2c(C(F)(F)F)cc(-c3ccccc3)nc2o1,9.5%

# These rows are one share of the data (hit frequency here may not be typical).
